VACV Venus inh – inhibitors of vaccinia virus (Venus reporter). Vaccinia virus Venus reporter expression, fluorescence. Potency, µM (highest dose often 36.5 µM), without a hit: at the top dose activity change, negative = inhibition, actives largely listed as inhibitors. 330,000 compounds, 0.46% hits. AID 720580; active means well fitted inhibition curve with a large enough effect; inconclusive means small, poorly fitted or top-dose-only effect; inactive means no such curve, though single readings can be large or run the other way; tested in A549 cells; further: nearly all actives have a fitted effect of over 30% in size; inactives centre near -10
VACV mCherry inh – inhibitors of vaccinia virus infection (mCherry reporter signal); 310,000 compounds, 0.63% hits; Potency, µM (highest dose often 36.5 µM), for inactives: at the highest dose activity change, negative = inhibition, actives largely listed as inhibitors; Vaccinia virus mCherry reporter infection, fluorescence; about a quarter of the inactives have no number; AID 720579; active = well fitted inhibition curve with a large enough effect; inconclusive = small, poorly fitted or top-dose-only effect; inactive = no such curve, though single readings can be large or run the other way; tested in A549 cells; further: nearly all actives have a fitted effect of over 35% in size; inactives centre near -10
The depositor's hits bear a star; i = inactive; ? = inconclusive; · = not tested or not shown; [ ] = dose if it differs, or a comment. On the % scale 0 is the no-effect control and ±100 the full control effect; potency means the concentration at half of the fitted maximal effect.

#1 O=[N+]([O-])c1ccc(Nc2ccc(Cl)cc2)nc1
#2 O=C(NC(=O)c1ccccc1)OCCN1C(=O)c2ccccc2C1=O
#3 O=C(c1ccccc1)N1CCC(O)(c2ccc3c(c2)OCO3)CC1
#4 CCN1CCN(c2ncc3c(n2)CCN(Cc2sccc2C)C3)CC1
#5 COc1ccc(N2CCN(C(=S)Nc3cccc(OC)c3)CC2)cc1
#6 Cc1ccc(NC(=O)CSc2nc3n[nH]c(C)c3c(=N)n2-c2ccccc2C)cc1C
#7 O=C(NC(=S)NCCCN1CCOCC1)c1cccc2ccccc12
#8 COc1ccc(NC(=O)Nc2ccccc2F)c(C)c1

compound no.,1,2,3,4,5,6,7,8
VACV Venus inh,-12%,-2%,-12%,-16%,-29%,-13%,-14%,0%
VACV mCherry inh,i,-6%,·,-17%,?,-19%,-21%,-13%

#9 Cc1ccc(NC(=O)c2cc3c([nH]c2=O)CC(c2ccccc2)CC3=O)cc1 (stereo not given)
#10 Cc1ccc(NC(=O)CCCn2c(=S)[nH]c3ccsc3c2=O)cc1C
#11 O=S1(=O)CC(N2CCC(Cc3ccccc3)CC2)CN1C1CCCCC1 (stereo not given)
#12 CCCCOc1ccc(C2C(=O)N(C3CCCCC3)CC(=O)N2CCCC)cc1 (stereo not given)
#13 Cc1ccc(C(=O)N/C(=C/c2cccs2)C(=O)NCCCn2ccnc2)cc1
#14 Fc1ccc(/C=N\Nc2cccc(F)c2)cc1
#15 CC(C)C(=O)NN(C(=O)C(C)C)c1nc2ccccc2s1
#16 N/C(=N\S(=O)(=O)c1cccs1)c1ccccc1

compound no.,9,10,11,12,13,14,15,16
VACV Venus inh,8%,8%[7.34 µM],-2%,-11%,-2%,-3%,-3%,-17%
VACV mCherry inh,44%[activator],-9%[7.34 µM],7%,-16%,-8%,-22%,-10%,·

#17 O=C(Nc1ccc(C(=O)O)cc1)Oc1ccc(N(CCCl)CCCl)cc1
#18 CC(C)n1c(=O)c2ccccc2n1Cc1cn(-c2ccc(Cl)cc2)nn1
#19 CN(CC(=O)Nc1ccc(Cl)cc1)c1ccc(S(=O)(=O)N2CCCCC2)cc1[N+](=O)[O-]
#20 CCCC(=O)Nc1nc(C)c(-c2csc(Nc3ccccc3OC)n2)s1
#21 COc1cc(OC)c(NC(=O)c2nn(-c3ccc(C)cc3)c(=O)c3c2c2ccccc2n3C)cc1Cl
#22 CCN(Cc1ccccc1)C(=O)c1c(C)oc2ncn(C)c(=O)c12
#23 Cc1ccc2c(c1)nnn2C1CCN(C(=O)C23CC4CC(CC(C4)C2)C3)CC1
#24 CCCCN1CCCCC1(C)C(=O)NCc1cccc(OC)c1 (stereo not given)

compound no.,17,18,19,20,21,22,23,24
VACV Venus inh,-25%,-4%,?,?,6%,-12%,-9%,-3%
VACV mCherry inh,-13%,i,-15%,?,8%,-11%,-14%,i

#25 COc1ccc2c3c(cccc13)OCC2=O
#26 CCOC(=O)c1c2c(n3ccccc13)C(=O)c1ccccc1C2=O
#27 COC(=O)Cn1c(SCCOc2ccccc2Cl)nc2ccccc21
#28 COc1ccc(Cl)cc1NC(=O)Cc1ccc(NC(=O)N2CCCCc3ccccc32)cc1
#29 Cc1cc(C)n(-c2nc3c(c(=O)[nH]c(=O)n3C)n2C(C)C)n1
#30 COc1ccc(NC(=O)Cn2c(=O)n(CCCC(=O)NCc3ccccc3Cl)c(=O)c3ccccc32)c(OC)c1
#31 Cc1cc(C)cc(-n2cc(C(=O)O)c(=O)cc2C)c1
#32 CCCNC(=O)c1ccc2c(c1)CCN2S(C)(=O)=O

compound no.,25,26,27,28,29,30,31,32
VACV Venus inh,2%,31%[activator],1%,-13%,-29%,?,-1%,7%
VACV mCherry inh,·,?,-2%,-13%,i[1.46 µM],-4%,-1%,11%

#33 CC1Cc2ccccc2N1C(=O)C1CC(=O)N(c2ccccc2)C1 (stereo not given)
#34 Cc1ccc(CNC(=O)C2CC3Cn4c(nc5cc6ccccc6cc54)C3N2C)o1 (stereo not given)
#35 Cc1ccc2c(c1)Oc1ccccc1N=C2
#36 COc1cccc(NC(=O)c2cn(C)c(=O)c3cc(OC)c(OC)cc23)c1
#37 COc1ccc(Cl)cc1C(=O)N1CCN(c2ccccn2)CC1
#38 Cc1nc2sc(C(c3ccccc3)N3CCN(C)CC3)c(O)n2n1 (stereo not given)
#39 Cc1cc(OCCOc2cccc3cccnc23)cc(C)c1Cl
#40 COc1cccc(NC(=O)COC(=O)c2ccccc2SCC(=O)N2CCCC2)c1

compound no.,33,34,35,36,37,38,39,40
VACV Venus inh,2%,-15%,-13%,-11%,-26%,-4%,?,-10%
VACV mCherry inh,-3%,i,-7%,-25%,·,i,·,-13%

#41 Oc1ccc(C[C@H]2CNCCN2CC2(c3ccccc3)CC2)cc1
#42 c1ccc(CCn2nnnc2C(c2cccs2)N2CCOCC2)cc1 (stereo not given)
#43 COc1ccc(-c2cc(C(=O)Nc3cc(C(F)(F)F)ccc3Cl)no2)cc1
#44 Cc1cc2cc(CNC(=O)c3ccc(S(=O)(=O)N4CCCC4)cc3)ccc2n1C
#45 COc1cc(NC(=O)Cn2nnc(-c3ccc(C(F)(F)F)cc3)n2)c(C(=O)O)cc1OC
#46 COc1ccc2c(c1)c1nc(SCC(C)C)n(CCO)c(=O)c1n2C
#47 O=C(NNC(=O)c1ccncc1)Nc1cc(Cl)ccc1Cl
#48 CCOc1ccc(N(CC(=O)NC2CCCC2)C(=O)CCC(=O)Nc2nccs2)cc1

compound no.,41,42,43,44,45,46,47,48
VACV Venus inh,?,4%,1%,7%,-3%,3%,-3%,-5%
VACV mCherry inh,?,-1%,8%,3%,3%,3%,-17%,-10%

#49 N#Cc1ccc(C(C(=O)Nc2ccc3c(c2)OCCO3)n2c(=O)c(-c3ccco3)nc3ccccc32)cc1 (stereo not given)
#50 O=C(NC(=S)Nc1ccc(NC(=O)c2ccco2)cc1)c1ccccc1
#51 CCCCOc1ccc(-c2n[nH]c(=S)n2Cc2ccccc2)cc1
#52 CCOC(=O)c1cn(Cc2ccc(C)cc2)nn1
#53 N#Cc1c(SCC(=O)N2CCOCC2)nsc1SCC(=O)N1CCOCC1
#54 CC(Sc1nnnn1C)C(=O)Nc1ccccc1-c1ccccc1 (stereo not given)
#55 O=C(CNS(=O)(=O)c1ccccc1)N1CCN(C(=O)c2ccco2)CC1
#56 Cc1ccccc1N1CCN(C(=S)c2ccc([N+](=O)[O-])cc2)CC1

compound no.,49,50,51,52,53,54,55,56
VACV Venus inh,-1%,-4%,-12%,-18%,-8%,-18%,-1%,-9%
VACV mCherry inh,13%,i,-2%,-16%,i,-19%,i,-3%

#57 COc1ccc2nc(C)cc(Nc3ccccc3OC)c2c1
#58 CCOC(=O)Cc1csc(NC(=O)c2ccc(C)cc2)n1
#59 CCCCSc1nnc2c(n1)OC(c1ccc(Br)s1)Nc1ccccc1-2 (stereo not given)
#60 CC[C@@]12C(=O)N(c3ccc(C)cc3)C(=O)N1[C@H](c1cccc(C)c1)[C@@H]1C(=O)N(Cc3ccccc3)C(=O)[C@@H]12
#61 COC(=O)C1=C(C)N(Cc2ccccc2)C(=NCCc2cccnc2)N[C@H]1c1ccccc1
#62 COC(=O)C1(C)NCCc2c1[nH]c1ccccc21 (stereo not given)
#63 COc1cc(NC(=S)Nc2ccccn2)c(OC)cc1Cl
#64 COc1c(NC(C)=O)c2c(c([N+](=O)[O-])c1OC)C(=O)OC2

compound no.,57,58,59,60,61,62,63,64
VACV Venus inh,-15%,-13%,-7%,-23%,-20%,-5%,-19%,-4%
VACV mCherry inh,-16%,-21%,i,-6%,4%,21%,-7%,-11%

#65 COc1ccc(CCN(C)C(=O)CN2C(=O)c3ccccc3S2(=O)=O)cc1OC
#66 O=[N+]([O-])c1ccc(COc2cccc(CNc3ccc(Br)cc3)c2)cc1
#67 CCOc1ccc(NC(=O)CN(C)C(=O)C2CC2C)cc1OCC (stereo not given)
#68 Cc1ccc(C2CC2c2n[nH]c(=S)n2-c2cccc(Cl)c2)cc1 (stereo not given)
#69 CCn1nc(C)c(NC(=O)c2cc(Br)ccc2Cl)c1C
#70 CCCCc1nc(NCCN2CCOCC2)c(C#N)c2c1COC(C)(C)C2
#71 CCN(CC(=O)Nc1ccc(OC)cc1)C(=O)c1ccc2c(c1)NC(=O)CS2
#72 CC(C)c1nnc(NC(=O)C2CCCN(C(=O)Nc3ccc(F)cc3)C2)s1 (stereo not given)

compound no.,65,66,67,68,69,70,71,72
VACV Venus inh,0%,-15%,6%,-9%,-12%,-26%,-1%,0%
VACV mCherry inh,-5%,i,-3%,-14%,-14%,-29%,i,0%

#73 CC(=NCc1cccc(Cl)c1)c1nc(-c2ccco2)oc1O
#74 Cc1ccccc1NC(=O)c1nc(S(C)(=O)=O)ncc1N(Cc1ccco1)Cc1sccc1C
#75 Cc1nc2ccc(NC(=O)N3CCSCC3)cc2s1
#76 COc1cc(-c2n[nH]c(=S)n2-c2cccc(C(F)(F)F)c2)cc(OC)c1OC
#77 CCN1CCN(/C=N/c2nc3c(s2)CCCC3)CC1
#78 CC1=C(C(=O)OC2CCCCCC2)C(c2c(F)cccc2Cl)CC(=O)N1 (stereo not given)
#79 O=C(NCc1ccccc1)c1nc(-c2ccc(Cl)cc2)n2c1CCCCC2
#80 Cc1ccc(O)c(NC(=O)c2noc3c2CCCC3)c1

compound no.,73,74,75,76,77,78,79,80
VACV Venus inh,?,-19%,-20%,-12%,-7%,-4%,-14%,-15%
VACV mCherry inh,-8%,-27%,-18%,i,i,-15%,-24%,-25%

#81 CCOC(=O)CC(=O)Nc1ccc(C(=O)OCC)cc1
#82 CCN1C(=O)C(O)(CC(=O)c2c(C)coc2C)c2ccccc21 (stereo not given)
#83 COc1cccc(CN2CC(C(=O)N3CCCO3)CCC2=O)c1 (stereo not given)
#84 CC(C)(C)OC(=O)N1CCC(c2c(C(=O)N3CCOCC3)cnn2-c2cccc(F)c2)CC1
#85 CCC(=O)NC(=S)Nc1ccc(NC(=O)c2ccco2)cc1
#86 Clc1ccccc1C1=Nn2c(nnc2-c2ccco2)SC1
#87 CC1CCN(C(=O)c2ccc(NC(=O)C3CCCO3)cc2)CC1 (stereo not given)
#88 O=C(NCCN1CCCCC1)Nc1cccc(Cl)c1Cl

compound no.,81,82,83,84,85,86,87,88
VACV Venus inh,-1%,8%,-15%,-1%,-11%,-8%,-10%,-27%
VACV mCherry inh,·,-1%,-4%,-4%,i,i,-12%,?

#89 CCOC(=O)/C(C#N)=C/N1CCOCC1
#90 C=CCC[C@H](Cc1ccc(F)cc1)C(=O)OC[C@@H](Cc1c[nH]c2ccccc12)NC(=O)[C@@H](CC=C)CC(=O)N[C@H](CO)Cc1ccccc1
#91 Cn1c(=O)c2c(nc(CN3CCN(CCO)CC3)n2Cc2ccccc2Cl)n(C)c1=O
#92 Cc1c(C(=O)O)cccc1-n1c(C)cc(/C=C(/C#N)C(=O)NCc2ccccc2)c1C
#93 O=C(O)c1ccc(-c2ccc(O)c(F)c2)cc1
#94 Cc1ccc(S(=O)(=O)NCc2cccnc2)cc1C
#95 COc1ccc(Cl)cc1NC(=O)NCCn1c(=O)oc2ccc(C)cc21

compound no.,89,90,91,92,93,94,95
VACV Venus inh,0%,?,-9%,-3%,-12%,-11%,-8%
VACV mCherry inh,-13%,0%,i,i,i,-4%,i

Molecules from the list above that have fluorine (ten):
#8 COc1ccc(NC(=O)Nc2ccccc2F)c(C)c1
#14 Fc1ccc(/C=N\Nc2cccc(F)c2)cc1
#43 COc1ccc(-c2cc(C(=O)Nc3cc(C(F)(F)F)ccc3Cl)no2)cc1
#45 COc1cc(NC(=O)Cn2nnc(-c3ccc(C(F)(F)F)cc3)n2)c(C(=O)O)cc1OC
#72 CC(C)c1nnc(NC(=O)C2CCCN(C(=O)Nc3ccc(F)cc3)C2)s1 (stereo not given)
#76 COc1cc(-c2n[nH]c(=S)n2-c2cccc(C(F)(F)F)c2)cc(OC)c1OC
#78 CC1=C(C(=O)OC2CCCCCC2)C(c2c(F)cccc2Cl)CC(=O)N1 (stereo not given)
#84 CC(C)(C)OC(=O)N1CCC(c2c(C(=O)N3CCOCC3)cnn2-c2cccc(F)c2)CC1
#90 C=CCC[C@H](Cc1ccc(F)cc1)C(=O)OC[C@@H](Cc1c[nH]c2ccccc12)NC(=O)[C@@H](CC=C)CC(=O)N[C@H](CO)Cc1ccccc1
#93 O=C(O)c1ccc(-c2ccc(O)c(F)c2)cc1

compound no.,8,14,43,45,72,76,78,84,90,93
VACV Venus inh,0%,-3%,1%,-3%,0%,-12%,-4%,-1%,?,-12%
VACV mCherry inh,-13%,-22%,8%,3%,0%,i,-15%,-4%,0%,i
